Bioassay records deposited in PubChem by Broad Institute.
HIV Env fusion – HIV envelope-mediated fusion inhibition | 1.1% of 360,000 active | HeLa-JRFL Env/CEM21 cell fusion, luciferase | inhibition, % at 12.3 µM;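 active = mean replicate inhibition score of at least 50 and every replicate individually at or above 50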;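 note: 0% = plate neutral controls and 100% = maraviroc near 300 nM; one replicate is shown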
UUG fidelity – yeast start codon fidelity modulation. 0.13% of 350,000 active. S. cerevisiae UUG-firefly luciferase reporter, luminescence/redox ratio. activity score, % at 18.7 µM. AID 602363;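 active = replicate mean at a twofold rise or more, about +100% in these data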;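 note: firefly luciferase made from a UUG start codon reports start codon fidelity; reporter light over untreated wells divided by growth signal over untreated wells; some hits fall short of that in this replicate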
Numbers without * were called inactive; [ ] = dose if it differs, or a comment. Some of the compounds tested, so the mix of outcomes need not match the whole.

A first look, 2 compounds:
SMILES	HIV Env fusion	UUG fidelity
O=C(OC(C(=O)NCc1ccccc1)c1cccs1)c1ccccc1 (configuration not stated)	-15.4[16.7 µM]	-5.3
C[C@@H]1CCCCO[C@H](CN(C)C(=O)NC2CCCCC2)[C@H](C)CN([C@H](C)CO)C(=O)c2cc(NC(=O)NC3CCCCC3)ccc2O1	6.9[16.7 µM]	15.0

The listing, previewed entries included:
SMILES	HIV Env fusion	UUG fidelity
O=C(OC(C(=O)NCc1ccccc1)c1cccs1)c1ccccc1 (configuration not stated)	-15.4[16.7 µM]	-5.3
C[C@@H]1CCCCO[C@H](CN(C)C(=O)NC2CCCCC2)[C@H](C)CN([C@H](C)CO)C(=O)c2cc(NC(=O)NC3CCCCC3)ccc2O1	6.9[16.7 µM]	15.0
CCCC(=O)Nc1ccc2c(c1)C(=O)N(C)[C@H]1CC[C@@H](CC(=O)N3CCc4ccccc4C3)O[C@H]1CO2	17.9[16.7 µM]	4.5
CC(=O)N(C)C[C@@H]1Oc2cc(C#C[C@H](C)O)ccc2S(=O)(=O)N([C@@H](C)CO)C[C@@H]1C	-0.1[16.7 µM]	-5.3
CO[C@@H]1CN(C)C(=O)c2ccc(NC(=O)c3ccc(F)cc3)cc2OC[C@@H](C)N(C(=O)c2ccc(F)cc2)C[C@H]1C	4.2[16.7 µM]	55.1
C[C@@H]1CCCCO[C@H](CN(C)C(=O)Nc2ccccc2)[C@H](C)CN([C@@H](C)CO)C(=O)c2cc(NC(=O)NC3CCCCC3)ccc2O1	22.9[16.7 µM]	-10.5
CC(C)NC(=O)N(C)C[C@@H]1Oc2c(cccc2N(C)C)C(=O)N([C@@H](C)CO)C[C@H]1C	5.2[16.7 µM]	-11.2
CNC[C@H]1Oc2ccc(NC(=O)NC(C)C)cc2C(=O)N([C@H](C)CO)C[C@@H]1C	18.2[16.7 µM]	-10.6
C[C@H]1CCCCO[C@@H](CN(C)C(=O)Nc2ccc(C(F)(F)F)cc2)[C@@H](C)CN([C@@H](C)CO)C(=O)c2cc(NS(=O)(=O)c3ccc(Cl)cc3)ccc2O1	-4.1[16.7 µM]	16.9
O=C(C[C@@H]1C=C[C@@H](NC(=O)CN2CCOCC2)[C@H](CO)O1)NCCc1ccccc1	-2.6[16.7 µM]	4.2
C[C@@H]1CN([C@@H](C)CO)S(=O)(=O)c2ccc(C#Cc3ccccc3)cc2O[C@@H]1CN(C)C	-43.6[16.7 µM]	0.2
C[C@H](CO)N1C[C@H](C)[C@@H](CN(C)S(=O)(=O)c2cccs2)Oc2ccc(NC(=O)C3CC3)cc2CC1=O	-1.7[16.7 µM]	0.4
C[C@H]1CN([C@@H](C)CO)C(=O)c2cc(NC(=O)Nc3ccc4c(c3)OCO4)ccc2O[C@@H]1CN(C)C(=O)Nc1ccc2c(c1)OCO2	1.7[16.7 µM]	8.9
C[C@H](CO)N1C[C@H](C)[C@@H](CN(C)CC2CCCCC2)Oc2ccc(NS(=O)(=O)c3ccc(Cl)cc3)cc2C1=O	-1.2[16.7 µM]	4.5
Cc1ccc(C(=O)NCC(=O)OCC(=O)NC(C)C2CC3CCC2C3)cc1 (configuration not stated)	-1.6	12.3
COc1ccccc1CNC(=O)C[C@H]1C[C@@H]2c3cc(NS(C)(=O)=O)ccc3O[C@@H]2[C@H](CO)O1	17.1[16.7 µM]	-11.9
C[C@H]1CCCCO[C@@H](CN(C)C(=O)c2ccccc2)[C@@H](C)CN([C@@H](C)CO)C(=O)c2cc(NS(C)(=O)=O)ccc2O1	17.8[16.7 µM]	7.6
CCCN(C)C[C@@H]1Oc2ncc(-c3cc4ccccc4o3)cc2C(=O)N([C@H](C)CO)C[C@@H]1C	28.1[16.7 µM]	4.4
COc1cccc(-c2cnc3c(c2)C(=O)N([C@@H](C)CO)C[C@H](C)[C@H](CN(C)Cc2ccncc2)O3)c1	3.4[16.7 µM]	-6.0
C[C@@H]1CN([C@H](C)CO)C(=O)c2cc(N(C)C)ccc2O[C@H]1CN(C)Cc1ccncc1	0.5[16.7 µM]	-3.2
COCC#Cc1ccc2c(c1)O[C@@H](CN(C)CC1CCCC1)[C@H](C)CN([C@@H](C)CO)S2(=O)=O	4.4[16.7 µM]	0.2
CC(C)CC#Cc1ccc2c(c1)O[C@@H](CN(C)C(=O)Nc1ccccc1F)[C@H](C)CN([C@@H](C)CO)S2(=O)=O	12.4[16.7 µM]	-4.6
CN1C(=O)c2cc(NC(=O)c3cc(F)cc(F)c3)ccc2OC[C@H]2O[C@@H](CC(=O)O)CC[C@H]21	-13.0[16.7 µM]	-1.9
CC(C)NC(=O)N[C@H]1CC[C@@H](CC(=O)NCCCN(C)C)O[C@@H]1CO	-4.2[16.7 µM]	-10.0
C[C@H]1CN([C@@H](C)CO)C(=O)c2cccc(NC(=O)C3CCCCC3)c2O[C@@H]1CN(C)Cc1ccc(-c2ccccc2)cc1	-19.3[16.7 µM]	-4.8
C[C@@H]1CN([C@H](C)CO)C(=O)c2cc(-c3cccc(F)c3)cnc2O[C@@H]1CN(C)C(=O)C1CCC1	0.6[16.7 µM]	2.5
CCCN(C)C[C@@H]1OCCCC[C@@H](C)Oc2ccc(NS(=O)(=O)c3cn(C)cn3)cc2C(=O)N([C@@H](C)CO)C[C@@H]1C	1.1[16.7 µM]	1.8
C[C@@H]1CN([C@H](C)CO)S(=O)(=O)c2ccc(C3=CCCC3)cc2O[C@@H]1CN(C)S(=O)(=O)c1ccc(F)cc1	49.6[16.7 µM]	-4.0
COc1ccc(S(=O)(=O)N(C)C[C@@H]2OCCCC[C@@H](C)Oc3ccc(NC(=O)CCC(F)(F)F)cc3C(=O)N([C@@H](C)CO)C[C@H]2C)cc1	-56.3[16.7 µM]	21.0
C[C@@H]1CCCCO[C@@H](CN(C)S(C)(=O)=O)[C@@H](C)CN([C@H](C)CO)C(=O)c2cc(NS(=O)(=O)c3cccs3)ccc2O1	-5.0[16.7 µM]	-10.2
C[C@H](CO)N1C[C@H](C)[C@H](CN(C)C)Oc2ncc(-c3ccc(F)cc3)cc2C1=O	-7.7[16.7 µM]	24.5
Cc1ccccc1S(=O)(=O)NCC[C@@H]1CC[C@@H](NC(=O)C2CCCC2)[C@H](CO)O1	-5.6[16.7 µM]	7.2
CCCNC(=O)C[C@H]1C[C@H]2c3cc(NC(=O)Nc4ccccc4)ccc3O[C@H]2[C@@H](CO)O1	44.1[16.7 µM]	6.8
COc1ccc(S(=O)(=O)N(C)C[C@H]2OCCCC[C@H](C)Oc3ccc(NC(=O)CCCN(C)C)cc3C(=O)N([C@H](C)CO)C[C@H]2C)cc1	-1.7[16.7 µM]	95.3
C[C@@H]1CN([C@H](C)CO)S(=O)(=O)c2ccc(C3=CCCC3)cc2O[C@H]1CN(C)C(=O)c1ccccn1	-4.3[16.7 µM]	-6.7
COCC#Cc1cnc2c(c1)C(=O)N([C@H](C)CO)C[C@H](C)[C@H](CN(C)C(=O)Nc1ccc(OC)cc1)O2	-12.3[16.7 µM]	-3.1
Cc1ccc(-c2cnc3c(c2)C(=O)N([C@@H](C)CO)C[C@H](C)[C@H](CN(C)Cc2ccccc2F)O3)cc1	-8.0[16.7 µM]	0.0
O=C(N[C@@H]1CC[C@H](CC(=O)N2CCN(c3ccccc3)CC2)O[C@@H]1CO)c1ccncc1	-4.8[16.7 µM]	-6.8
O=C(CCN1CCCCC1)N[C@H]1CC[C@H](CCNC(=O)c2cc(Cl)cc(Cl)c2)O[C@H]1CO	-13.6[16.7 µM]	2.9
CC(C)CC#Cc1cnc2c(c1)C(=O)N([C@@H](C)CO)C[C@H](C)[C@@H](CN(C)C(=O)CC1CC1)O2	-11.7[16.7 µM]	8.7
C[C@@H]1CN([C@H](C)CO)C(=O)c2cccc(NC(=O)Nc3ccc(F)cc3)c2O[C@@H]1CN(C)C(=O)Nc1ccc2c(c1)OCO2	21.1[16.7 µM]	6.3
Cc1noc(C)c1NC(=O)Nc1ccc2c(c1)C(=O)N([C@@H](C)CO)C[C@@H](C)[C@H](CN(C)C(=O)CCCN(C)C)OCCCC[C@@H](C)O2	18.5[16.7 µM]	21.8
C[C@@H]1CN([C@@H](C)CO)C(=O)Cc2cc(NS(=O)(=O)c3cn(C)cn3)ccc2O[C@@H]1CN(C)Cc1ccc(C(F)(F)F)cc1	5.4[16.7 µM]	-8.8
O=C(C[C@H]1C[C@H]2c3cc(NC(=O)NC4CCCC4)ccc3O[C@H]2[C@@H](CO)O1)NCCc1ccccc1	22.5[16.7 µM]	-16.7
C[C@H]1CCCCO[C@H](CN(C)C(=O)NC2CCCCC2)[C@@H](C)CN([C@@H](C)CO)C(=O)c2cc(NC(=O)Cc3ccccc3)ccc2O1	35.4[16.7 µM]	-11.5
C[C@@H]1CCCCO[C@H](CN(C)C(=O)Nc2ccc(F)cc2)[C@H](C)CN([C@@H](C)CO)C(=O)c2cc(NC(=O)CCC(F)(F)F)ccc2O1	3.2[16.7 µM]	4.9
C[C@H](CO)N1C[C@H](C)[C@@H](CN(C)S(=O)(=O)c2ccccc2)Oc2ccc(NS(=O)(=O)c3cn(C)cn3)cc2CC1=O	-5.2[16.7 µM]	-1.7
Cc1noc(C)c1NC(=O)N[C@H]1CC[C@H](CCNC(=O)C2CC2)O[C@H]1CO	-5.8[16.7 µM]	-5.9
COC(=O)C[C@H]1CC[C@H]2[C@@H](COc3ccc(NC(=O)Nc4cccc(C)c4)cc3C(=O)N2C)O1	-0.8[16.7 µM]	-2.4
COc1cccc(S(=O)(=O)Nc2ccc3c(c2)[C@H]2C[C@@H](CC(=O)N[C@@H](C)c4ccccc4)O[C@@H](CO)[C@H]2O3)c1	2.2[16.7 µM]	-3.9

Reprinted from the part before: 3 entries; new compounds follow.
SMILES	HIV Env fusion	UUG fidelity
Cc1noc(C)c1NC(=O)N[C@H]1CC[C@H](CCNC(=O)C2CC2)O[C@H]1CO	-5.8[16.7 µM]	-5.9
COC(=O)C[C@H]1CC[C@H]2[C@@H](COc3ccc(NC(=O)Nc4cccc(C)c4)cc3C(=O)N2C)O1	-0.8[16.7 µM]	-2.4
COc1cccc(S(=O)(=O)Nc2ccc3c(c2)[C@H]2C[C@@H](CC(=O)N[C@@H](C)c4ccccc4)O[C@@H](CO)[C@H]2O3)c1	2.2[16.7 µM]	-3.9
C[C@@H](O)C#Cc1ccc2c(c1)O[C@@H](CN(C)C(=O)C1CC1)[C@@H](C)CN([C@@H](C)CO)S2(=O)=O	5.3[16.7 µM]	27.2
COc1ccc(CN(C)C[C@H]2OCCCC[C@@H](C)Oc3ccc(NS(=O)(=O)c4ccc(Cl)cc4)cc3C(=O)N([C@H](C)CO)C[C@H]2C)cc1	51.7[16.7 µM]	16.8
CO[C@H]1CN(C)C(=O)c2ccc(NC(=O)c3ccccc3)cc2OC[C@@H](C)N(C(=O)CN(C)C)C[C@H]1C	-0.2[16.7 µM]	8.2
Cc1ccc(S(=O)(=O)Nc2ccc3c(c2)C(=O)N([C@@H](C)CO)C[C@H](C)[C@H](CN(C)C(=O)NC(C)C)OCCCC[C@H](C)O3)cc1	-94.0[16.7 µM]	9.8
C/C=C/c1ccc2c(c1)O[C@@H](CN(C)C(=O)C1CC1)[C@@H](C)CN([C@H](C)CO)S2(=O)=O	0.2[16.7 µM]	-9.7
C[C@@H]1CN([C@H](C)CO)C(=O)c2cc(/C=C/c3ccccc3)cnc2O[C@@H]1CN(C)S(=O)(=O)c1ccccc1F	-8.0[16.7 µM]	-7.0
CCCC#Cc1cnc2c(c1)C(=O)N([C@H](C)CO)C[C@@H](C)[C@H](CN(C)C(=O)NCCC)O2	-8.1[16.7 µM]	0.6
COCC#Cc1ccc2c(c1)O[C@H](CN(C)CC1CC1)[C@H](C)CN([C@H](C)CO)S2(=O)=O	8.7[16.7 µM]	35.1
CCCC#Cc1ccc2c(c1)O[C@H](CN(C)C(=O)CC1CC1)[C@@H](C)CN([C@@H](C)CO)S2(=O)=O	11.9[16.7 µM]	1.6
COc1cccc(NC(=O)N(C)C[C@@H]2Oc3ncc(C4=CCCCC4)cc3C(=O)N([C@H](C)CO)C[C@@H]2C)c1	-2.6[16.7 µM]	0.3
Cc1ccc(S(=O)(=O)Nc2cccc3c2O[C@@H](CN(C)S(=O)(=O)c2ccccc2)[C@H](C)CN([C@@H](C)CO)C3=O)cc1	5.6[16.7 µM]	4.4
CCCNC(=O)N1[C@H](C#N)[C@@H](c2ccc(-c3cccnc3)cc2)[C@@H]1CO	-12.6[16.7 µM]	10.8
O=C(Nc1ccccc1)N[C@H]1CC[C@@H](CCNS(=O)(=O)c2cccc(F)c2)O[C@@H]1CO	20.7[16.7 µM]	4.6
C[C@@H]1CN([C@H](C)CO)C(=O)c2cc(C3=CCCC3)cnc2O[C@@H]1CN(C)C(=O)C1CCC1	-27.4[16.7 µM]	-1.3
Cc1ccc(S(=O)(=O)N(C)C[C@@H]2OCCCC[C@H](C)Oc3ccc(NS(=O)(=O)c4c(C)noc4C)cc3C(=O)N([C@H](C)CO)C[C@@H]2C)cc1	-55.0[16.7 µM]	-11.7
COc1ccccc1-c1ccc([C@@H]2[C@@H](C#N)N(C(=O)NC(C)C)[C@@H]2CO)cc1	-32.1[16.7 µM]	6.5
C[C@@H]1CN([C@@H](C)CO)C(=O)c2cc(NC(=O)Nc3ccc(F)cc3)ccc2O[C@H]1CN(C)C(=O)NC1CCCCC1	7.5[16.7 µM]	-3.8
CCCc1cn(CC[C@H]2CC[C@@H](NC(=O)C3CCCC3)[C@@H](CO)O2)nn1	-4.5[16.7 µM]	12.8
C[C@@H]1CCCCO[C@@H](CN(C)CC2CC2)[C@H](C)CN([C@H](C)CO)C(=O)c2cc(NC(=O)Nc3cccc4ccccc34)ccc2O1	24.8[16.7 µM]	18.5
CCNC(=O)C[C@@H]1CC[C@@H](NC(=O)NC2CCCCC2)[C@@H](CO)O1	-15.5[16.7 µM]	-8.0
